ClpP mod: qHTS Assay for Activators of ClpP; purified B. subtilis ClpP, FRET peptide cleavage, 20 min; Potency, µM (top dose mostly 57.5 µM), for inactives: at the top dose activity change, negative = active; ATP-dependent Clp protease proteolytic subunit (Bacillus subtilis (strain 168)), P80244; actives 1.9% (n = 340,000); active = well fitted falling curve with a large enough effect; inconclusive = small, poorly fitted or top-dose-only effect; inactive = no such curve, though single readings can be large or run the other way; note: potency is the fitted concentration of half-maximal effect; the source files actives as falling curves though it sought activators and does not explain the sign; nearly all actives have a fitted effect of over 65% in size; many hits overshoot -100%
Target sequence (P80244 whole entry, looked up): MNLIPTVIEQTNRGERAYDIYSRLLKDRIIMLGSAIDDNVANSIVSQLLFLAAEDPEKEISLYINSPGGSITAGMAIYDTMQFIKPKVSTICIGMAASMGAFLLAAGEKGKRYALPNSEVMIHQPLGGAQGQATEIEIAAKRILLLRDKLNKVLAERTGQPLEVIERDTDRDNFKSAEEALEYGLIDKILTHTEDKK
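Purified B. subtilis ClpP, 10 microg/mL final in Tris/HCl pH8 with KCl, BSA, glycerol and Tween-20, cleaved an Abz/nitrotyrosine-quenched decapeptide. Fluorescence (ex 320, em 430) was read at 0 and 20 min at room temperature. Delta was normalized to 5.8 microM ADEP and DMSO/no-enzyme controls.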
TRPML1 blocker: human mucolipin-1 channel inhibition; Q9GZU1; TRPML1-inducible cells, Ca2+ dye fluorescence, FDSS; hits give low values; inhibition of EC80 agonist-evoked calcium signal; activity change, negative = inhibition, % (no concentration beside the values); actives 0.02% (n = 390,000); in the data active means activity change below about -50%; inconclusive means about -30% to -50%; inactive means above about -30%;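 note: stimulus is agonist 54-4 at its EC80 concentration; % is set by controls: 0 for no effect and ±100 for the full control effect; compound concentration not given in the record; the text of the record puts the active cut at -80%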
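Calcium fluorescence in TRPML1-DL cells induced overnight with Tet: a 110 s read after compound pin addition, then a 110 s antagonist read after challenge with 54-4 at 4 uM final (EC80).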
gsp agonist: gsp mutant agonism; gsp mutant cells, cAMP HTRF, 30 min; control for the full effect not named in the record; Potency, µM (top dose mostly 76.9 µM), without a hit: at the highest dose activation (cAMP increase), hits mostly activators; actives 0.13% (n = 340,000); active = well fitted activation curve with a large enough effect; inconclusive = small, poorly fitted or top-dose-only effect, or another doubt; inactive = no such curve, though single readings can be large or run the other way; cell line not stated here;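 note: phosphodiesterase inhibitor Ro 20-1724 added with compounds to block cAMP breakdown; potency is the fitted concentration of half-maximal effect; nearly all actives have a fitted effect of over 60% in size; about a fifth of the inactives were tested at one dose only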
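Cells stably selected in G418 were plated at 2000/well, grown 16-24 hr, then given compounds in DMSO with the PDE inhibitor […] (300 uM solution added) for 30 min at 37C; cAMP was read by HTRF.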
gsp antag: antagonists of gsp mutant (McCune-Albright syndrome). gsp-mutant cells, cAMP HTRF, 30 min; control for the full effect not named in the record. Potency, µM (highest dose often 76.9 µM), for inactives: at the highest dose activity change, negative = inhibition, most hits filed as inhibitors. actives 0.4% (n = 340,000); active = falling curve of any shape with a large fitted effect; inconclusive = falling curve, mostly with a smaller effect; inactive = flat or rising curve; cell line not stated here;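 note: intracellular cAMP measured with PDE inhibitor Ro 20-1724 present during compound exposure; potency is the fitted concentration of half-maximal effect; % is set by controls: 0 for no effect and ±100 for the full control effect; nearly all actives have a fitted effect of over 65% in size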
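Measurement of cellular cAMP by homogeneous time-resolved fluorescence following a 30 min compound exposure at 37C. The PDE inhibitor […] was present throughout; the assay buffer was DPBS with 0.05% BSA and 0.005% Tween 20.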
Sfp PPTase inh: inhibitors of Bacillus subtilis Sfp phosphopantetheinyl transferase; Q9F4F7; Biochemical Sfp PPTase activity, qHTS; Potency, µM, for the others: max response, negative = inhibition, hits mostly inhibitors; actives 3.5% (n = 310,000); AID 1490; active = well fitted inhibition curve with a large enough effect; inconclusive = small, poorly fitted or top-dose-only effect, or another doubt; inactive = no such curve, though single readings can be large or run the other way;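 note: the enzyme is Sfp with the accession as filed and its product quenches rhodamine fluorescence; potency is the fitted concentration of half-maximal effect; 0% = enzyme reaction without inhibitor and -100% = no enzyme wells; top concentration of the series not given in the record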
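Fluorescence-quenching assay: 15 nM Sfp-PPTase preincubated 15 min at room temperature with compound, then 5 uM rhodamine-CoA and 12.5 uM BHQ-2-labelled YbbR peptide added. Fluorescence (ex 525/em 598 nm) read at start and after 30 min; difference gives rate.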
Menin MLL FP FL: menin-MLL binding inhibition, fluorescein peptide | Fluorescence polarization, fluorescein-MLL peptide displacement from menin | FP activity change, % at 61.4 µM | 290,000 tested, under 10 active | AID 1766; inconclusive = falling polarisation curve, or a change in total fluorescence; inactive = total fluorescence flat and polarisation flat or rising; no compound was filed as active; the % refers to the polarisation; negative = inhibition;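 note: % of control where 0% means no effect; inhibitors lower the polarisation; unlabelled MLL peptide was the positive control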
TRPV1 potentiator: enhances activation of the human vanilloid receptor TRPV1; Q8NER1; TRPV1-expressing cells, Fluo-8 calcium influx, capsaicin EC20 potentiation; host cell line not named in the record; control for the full effect not named in the record; potentiation, % at 8.33 µM; actives 0.02% (n = 320,000); AID 540277; active means potentiation above 80%; inconclusive means 30% to 80%; inactive means below 30%; note: 0% is about no effect
Target sequence (Q8NER1 whole entry, looked up): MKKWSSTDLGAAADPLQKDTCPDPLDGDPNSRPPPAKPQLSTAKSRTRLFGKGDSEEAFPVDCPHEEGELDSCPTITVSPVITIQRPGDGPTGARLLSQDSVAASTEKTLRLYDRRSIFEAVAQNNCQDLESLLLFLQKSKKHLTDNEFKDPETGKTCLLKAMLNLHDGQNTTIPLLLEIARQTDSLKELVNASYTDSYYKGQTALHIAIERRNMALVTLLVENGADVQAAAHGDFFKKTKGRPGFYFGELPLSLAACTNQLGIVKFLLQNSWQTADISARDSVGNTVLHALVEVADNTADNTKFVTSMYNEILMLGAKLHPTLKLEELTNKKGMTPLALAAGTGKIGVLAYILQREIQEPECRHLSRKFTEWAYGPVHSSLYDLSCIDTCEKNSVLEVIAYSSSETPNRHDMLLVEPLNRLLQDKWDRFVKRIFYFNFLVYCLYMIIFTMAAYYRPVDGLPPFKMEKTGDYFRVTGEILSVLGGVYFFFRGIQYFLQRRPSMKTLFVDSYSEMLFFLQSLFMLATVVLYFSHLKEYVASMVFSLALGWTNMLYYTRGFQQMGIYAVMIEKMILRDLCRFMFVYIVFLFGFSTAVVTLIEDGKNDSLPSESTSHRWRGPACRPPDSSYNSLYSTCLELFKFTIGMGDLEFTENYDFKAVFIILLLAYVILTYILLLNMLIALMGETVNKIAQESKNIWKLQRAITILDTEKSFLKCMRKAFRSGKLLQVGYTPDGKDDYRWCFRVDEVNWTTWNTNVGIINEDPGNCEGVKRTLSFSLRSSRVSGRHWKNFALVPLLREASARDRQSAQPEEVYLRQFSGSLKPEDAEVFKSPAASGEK
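TRPV1-expressing cells were cultured overnight at 35.5C and loaded with Fluo-8 calcium dye for 40 to 90 min at room temperature. After a 10 s baseline, compound was added and calcium influx was read kinetically for 3 min (ex 480/em 520 nm).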
Starred values were filed as active, the others as inactive; ? = inconclusive; · = no result given; & = joins results of further samples; [ ] = another dose, or the depositor's remark.

mol,Menin MLL FP FL,gsp antag,ClpP mod,gsp agonist,Sfp PPTase inh,TRPV1 potentiator,TRPML1 blocker
Cc1ccc([N+](=O)[O-])cc1S(=O)(=O)Nc1cccc(-c2ccc(N3CCCC3)nn2)c1,·,?,1.4%,-16%,·,-1,-12
CCn1cc(CN2CCCC(C(=O)c3ccc(-c4ccccc4)cc3)C2)cn1 (stereo not given),-0.8,4%,·,-36%[inhibitor],7%,11,?
CCn1nc(C)c(CNC(=O)CCc2nnc(Cc3c[nH]c4ccccc34)o2)c1C,-5.0,-1%,·,-6%,23%,0,10
O=C(NCCN1CCOCC1)c1cc2cc(Br)ccc2oc1=O,6.4,7%,0.2%,24%,-2%,1,-11
O=C(C[n+]1ccccc1)N/N=C/c1ccc(Br)cc1,·,-3%,-1.3%,12%,·,-15,-10
CC(C)Cc1cc(C(=O)N2CCC(N3CCC(C(=O)NC4CC4)CC3)CC2)n[nH]1,0.1,2%,·,-4%[15.4 µM],11%,-4,-20
Clc1cccc(Oc2cnc3ccccc3n2)c1,-2.5,-16%,-0.7%,26%,-6%,19,2
Cc1cccc(C(=O)N2CCC(=O)N([C@H](COCc3ccc(Cl)cc3)Cc3ccccc3)CC2)c1,-0.6,·,-1.4%,·,14%,·,·
CCOc1ccc2nc(NC(=O)C3CCN(C(=O)c4ccco4)CC3)sc2c1,5.1,-31%,-0.5%,2%,3%,-9,12
CCN1C(=O)[C@@H]2[C@H](C1=O)[C@@H]1C(=O)Nc3ccccc3C(=O)N1[C@@H]2c1ccccc1,·,9%,-16%,-10%,·,-18,24
COc1cccc(CN2C(=O)CCC2(C)C(=O)NC2CCCCCC2)c1 (stereo not given),0.3,5%,1.3%,-20%,3%,-4,22
O=C(O)/C=C/c1ccccc1[N+](=O)[O-],0.6,10%,0.6%,-12%,9%,0,23
CC(C)(C)C(=O)NC1CC2CCCC(C1)N2C(=O)Nc1ccccc1Cl (stereo not given),-4.8,-3%,0.2%,-50%[inhibitor],6%,6,16
CC1CCN(C(=O)CSc2ccc(-c3cccc([N+](=O)[O-])c3)nn2)CC1,0.7,28µM*,·,9%[15.4 µM],6%,-11,-8
Cc1cc([N+](=O)[O-])ccc1NCc1ccccc1,0.3,?,-2.2%,-7%,4%,-5,12
COc1ccc(C(=O)N[C@H](C(=O)NCCc2ccc3c(c2)OCCO3)C(C)C)cc1,·,1%,-6.1%,-7%,·,·,9
CC(C)(C)c1ccc(OCCC(=O)OCC(=O)NC2CC2)cc1,·,6%,1.7%,-8%,·,-5,-5
O=C(c1ccc(N2CCOCC2)c([N+](=O)[O-])c1)N1CCCC(C(F)(F)F)C1 (stereo not given),·,7%,-5.5%,4%[15.4 µM],·,6,9
COc1nnc(-c2ccc(C)c(S(=O)(=O)NCCO)c2)c2ccccc12,-3.1,6%,0.0%,16%,-11%,-2,-3
Cc1cccc(NC(=O)NCCN2CCCCC2)c1,0.7,-1%,0.1%,4%,26%,-33,-6
COc1ccc(/C=C2\N=C(SC)NC2=O)cc1,2.3,-20%,0.4%,-27%,2%,-1,15
CC1=NN(c2ccccc2)C(=O)C1N=Nc1ccc(S(N)(=O)=O)cc1 (stereo not given),3.6,4%,0.8%,-2%,?,-23,-4
COc1ccccc1-c1c(C(F)(F)F)oc2cc(OCC(=O)Nc3ccccc3C(F)(F)F)ccc2c1=O,1.1,2%,1.9%,-4%,18%,12,-9
O=C(Nc1ccc(Cc2ccncc2)cc1)C1CCC(N2C(=O)C3CCCCC3C2=O)CC1 (stereo not given),0.0,-19%,0.5%,2%,-14%,-10,-17
NS(=O)(=O)c1cccc(NC(=O)c2cccc(N3C(=O)c4ccccc4C3=O)c2)c1,·,7%,0.4%,-15%,·,·,-6
Cc1ccc(C(=O)N2CCN(c3ncccn3)CC2)c(C)c1,-0.4,5%,·,5%[15.4 µM],3%,13,9
COc1ccc(/C=N/N2C(=O)C3C4C=CC(C4)C3C2=O)cc1[N+](=O)[O-] (stereo not given),1.3,10%,-3.7%,18%[15.4 µM],10%,-3,-4
COc1ccc(CCNC(=O)CSc2ccc(-c3ccco3)nn2)cc1OC,-3.2,1%,·,30%,?,21,1
Cc1cc(NC(=O)CCC(=O)N(CCC(C)C)C(C(=O)NC2CCCC2)c2cccnc2)no1 (stereo not given),-0.1,11%,-0.8%,-3%,17%,5,2
COc1ccc(NS(=O)(=O)c2cc(OC)ccc2NC(=O)c2cc(C)oc2C)cc1,1.2,12%,0.0%,1%,-30%,9,14
COC(=O)CN(C(=S)Nc1ccc(Cl)cc1)C1CC(=O)N(c2ccc(OC)cc2)C1=O (stereo not given),0.8,-19%,-0.5%,8%,3%,-13,-6
Cn1c(CO)cnc1SCC(=O)c1ccc(F)cc1,0.7,7%,-2.4%,25%,4%,17,0
Cc1cccc(NC(=O)N2CCCC2C(=O)NCc2cccs2)c1 (stereo not given),2.3,3%,18µM*,?,22%,14,30
C/C(=N\NC(=O)c1ccncc1)c1cc2ccccc2o1,1.0,-1%,·,-26%,14%,-5,23
COc1ccc(N(C(=O)CNC(=O)c2cccs2)C(C(=O)NC2CCCC2)c2ccncc2)cc1 (stereo not given),-6.2,-5%,0.4%,?,-2%,-4,7
CCOc1ccc(NC(=O)CC2C(=O)N(c3cccc(OC)c3)C(=O)N2C(C)C)cc1 (stereo not given),-1.4,5%,-3.2%,-68%[inhibitor],-2%,-2,-9
COc1ccc(NC(=O)CSc2cccc3cccnc23)c(OC)c1,5.8,1%,-4.4%,-37%,9%,8,14
CCn1cc(Br)c(C(=O)Nc2cccc(Cl)c2)n1,3.6,0%,1.7%,9%,6%,3,-16
CCN1CCN(c2ccccc2NC(=O)C(C)Oc2ccc(C(C)=O)cc2)CC1 (stereo not given),·,3%,0.2%,16%,·,-3,-4
COc1ccc2[nH]c(O)c(NC(C)=O)c2c1,-0.1,3%,-2.8%,12%,-13%,11,8
CCc1nn2c(=O)cc(COc3ccc(/C=C4\C(=N)N5N=C(C)SC5=NC4=O)cc3)nc2s1,1.7,-14%,-2.9%,-25%,4%,-42,-5
O=C(NCc1ccc2c(c1)OCO2)C(=O)NCC1OCCCN1S(=O)(=O)c1ccccc1 (stereo not given),·,·,-0.2%,7%,·,·,5
CCC1(CC)C(=O)NC(=O)NC1=NCCc1ccc(O)cc1,-2.8,-2%,-2.0%,26%,?,-3,-7
COCCOC(=O)c1c(C)oc2ccc(NS(=O)(=O)c3ccc(C(=O)O)cc3)cc12,-1.1,5%,-1.5%,?,2%,0,-1
CCOC(=O)N1CCN(C(=O)Cn2c(=O)sc3ccccc32)CC1,1.8,2%,-0.5%,-14%,12%,-8,1
CC(=O)NN1C(=O)/C(=C\c2ccc(C)cc2)SC1=S,5.8,-6%,0.7%,-62%[inhibitor],10%,3,-12
CCN(C(=O)COC(=O)C1=COCCO1)c1c(N)n(Cc2ccccc2)c(=O)[nH]c1=O,·,16%,14µM*,-53%[inhibitor],·,6,-2
c1ccc(C2[C@H]3CN(Cc4cccnc4)[C@H](c4ccccc4)C34CC2(c2ccccc2)C4)cc1 (stereo not given in full),6.0&5.9,-6%,-1.2%,·,?,30,13
COc1ccc2c(ccc[n+]2CC(=O)c2ccccc2)c1,5.9,13%,-23%,11%,14%,-2,12
COc1cc(NC(=O)C2CCCCN2)ccc1OCC(C)C (stereo not given),0.0,3%,0.6%,17%,1%,3,-6
CCOC(=O)/C(C#N)=C1/SC(CCO)C(=O)N1c1ccccc1 (stereo not given),3.6,-1%,-0.8%,6%[15.4 µM],12%,11,8
O=C(CSc1nnnn1-c1ccccc1)NC(=O)Nc1ccc2c(c1)OCCO2,-0.1,2%,-2.7%,0%,-10%,9,27
Cc1ccc(-c2nnn(CC(=O)N3CCN(c4ccccc4)CC3)n2)o1,1.0,-2%,-2.5%,16%,9%,27,-12
Cc1ccc(Oc2ccccc2/C=C2\SC(=O)N(C)C2=O)cc1,3.9,-12%,?,-17%,-2%,2,17
CCCCC1=CC2=CC(=O)C(C)(OC(=O)c3cccs3)C(=O)C2=CO1 (stereo not given),?,-6%,-1.0%,·,-12%,·,8
O=C(Nc1ccc(O)cc1)c1ccc(C(=O)c2ccccc2)o1,-2.3,-19%,1.8%,-2%,6%,-13,11
CC1(C)Cc2c(sc3c2c(=N)n(Cc2ccco2)c(=O)n3Cc2ccc(Cl)cc2)CO1,10,-24%[15.4 µM],1.1%,?,-13%,10,69
COc1ccc(-c2cc3c(=O)n(CC(=O)NCCCN4CCC(Cc5ccccc5)CC4)ncn3n2)cc1,·,18%,-11%,7%,3%,10,4
O=C(COC(=O)Cc1ccc(S(=O)(=O)N2CCOCC2)s1)NCCc1ccccc1,9.7,-19%,-2.6%,-65%[inhibitor],24%,-4,1
Nc1ccc(S(=O)(=O)c2ccccc2)nc1,0.4,7%,0.2%,6%,?,10,-2
CC(C)OCCCNC(=S)N1CCC(C(=O)c2ccc(F)cc2)CC1,·,·,-0.9%,-14%,·,·,-8
Cc1ccc(NC(=S)NCc2ccccc2Cl)c(C)c1,-2.2,3%,-0.1%,2%,-9%,-6,25
CC(/C=C/c1ccc(N(C)C)cc1)=N\N=C1\NC(=O)CC(C(=O)Nc2ccccc2)S1 (stereo not given),?,-14%,1.3%,6%,9%,-1,-5

Screens deposited in PubChem by National Center for Advancing Translational Sciences (NCATS).

Not a hit list, and some 4.9% of all compounds hit somewhere here.
